High-throughput results as filed in PubChem BioAssay.
RanGTP-Imp inh = disruptors of Ran-importin-beta complex formation – biochemical, FRET, CFP-Ran, YFP-importin-beta, homogeneous, primary screen; cell-free CFP-Ran/YFP-importin-beta FRET ratio; inhibition, % (no concentration beside the values); 1.1% of 300,000 active;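 active means most replicates above 15%; inconclusive means exactly half above 15%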;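 further: 0% = DMSO wells and 100% = Ran loaded with GDP instead of GTP; wells of about 40 µL received 100 nL stock; the first replicate is given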
T cruzi inh = T. cruzi replication inhibition | T. cruzi beta-gal in NIH3T3, luminescence, 90 h | inhibition, % (no concentration beside the values) | 1.4% of 300,000 active | AID 1885;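 active means mean inhibition across valid replicates above about 55%, limit read from the data; inconclusive means mean below that limit but half or more replicates reach it; inactive means mean below it, under half of replicates reach it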;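 further: signal also drops with host cell toxicity which is not excluded here; 0% = plate median of DMSO wells and 100% = zero luminescence signal; higher percent means less beta-gal luminescence so fewer parasites; stock transfer was 50 nL into about 50 µL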
Vif A3G = inhibitors of Vif binding to APOBEC3G peptide, primary screen, biochemical, TR-FRET, GST-Vif 1-94, biotin-A3G peptide, dose response retest (AID 1117319). TR-FRET GST-Vif / biotin-A3G peptide binding; higher % means a stronger effect; test concentration not given here; strong numbers were not always called active. inhibition, %; hits with a dose series show IC50 in µM. 0.57% of 260,000 active;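 active means above the screen mean plus three standard deviations and confirmed in dose response; inconclusive means results disagree or hit not tested in dose response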;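 further: Vif residues 1-94 fused to GST binding biotinylated APOBEC3G peptide 110-148; 0% = full assay without inhibitor and 100% = GST in place of GST-Vif; retest series ran down from 100 µM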
AF4-AF9 inh = inhibitors of human MLL-AF4/AF9 interaction; 0.47% of 350,000 active; AlphaScreen, biotin-AF4 peptide binding to FLAG-AF9; AID 651704; inhibition, % at 10 µM;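 active means every replicate reaching a set inhibition limit, whatever the replicate mean, cut at about 25% in these data; inconclusive means mean inhibition reaches that limit but some replicates miss it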;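 further: 0% = plate neutral control median and 100% = total signal loss; the record names both 10 and 1 µM as test concentration; the first replicate is given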
Target sequence (P42568 whole entry, looked up): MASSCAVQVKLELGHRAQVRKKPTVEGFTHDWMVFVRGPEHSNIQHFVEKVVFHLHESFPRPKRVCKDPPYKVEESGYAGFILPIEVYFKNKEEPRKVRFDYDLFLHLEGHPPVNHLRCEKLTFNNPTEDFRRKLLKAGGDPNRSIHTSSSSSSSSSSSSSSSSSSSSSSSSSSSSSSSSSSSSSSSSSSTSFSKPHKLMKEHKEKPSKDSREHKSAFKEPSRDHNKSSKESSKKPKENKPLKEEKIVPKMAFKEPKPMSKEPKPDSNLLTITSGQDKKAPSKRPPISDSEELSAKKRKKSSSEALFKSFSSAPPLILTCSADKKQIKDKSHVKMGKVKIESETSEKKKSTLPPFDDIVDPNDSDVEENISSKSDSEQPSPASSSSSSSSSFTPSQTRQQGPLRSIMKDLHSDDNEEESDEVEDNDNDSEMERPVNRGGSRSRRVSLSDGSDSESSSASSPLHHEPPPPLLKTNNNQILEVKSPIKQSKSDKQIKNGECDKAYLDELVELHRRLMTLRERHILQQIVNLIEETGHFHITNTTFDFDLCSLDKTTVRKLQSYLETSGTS
rRNA inh HTS = inhibitors of bacterial rRNA selective over humanized ribosomes; AID 720706; 1.6% of 350,000 active; GFP signal change (wild-type ribosome), % (test concentration not listed); E. coli WT GFP vs humanized-ribosome RFP mutants, fluorescence, 24 h; hits give low values; DMSO median 0, no signal -100;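 active means significant combined selectivity score with lowered wild-type GFP, culture density cut under 30%, mutant RFP and density less affected; inactive means any of these conditions unmet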; further: one replicate is shown; some compounds called inactive have numbers as strong as hits
Beta apoptosis = blocks beta cell apoptosis | 0.8% of 300,000 active | INS-1E cytokine-induced death, ATP luminescence, 48 h; percent of positive-control rescue, neutral wells zero | protection from apoptosis, % (concentration not given with the values);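 active means all replicates at 75% or more, or half of them and the mean; inconclusive means half reach 75% but not the mean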;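 further: 0% = cytokine-treated negative control wells and 100% = positive control rescue; higher means more ATP so stronger rescue from cytokine killing; wells of about 40 µL received 100 nL stock; the first replicate is given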
Bfl-1 A1 inh = inhibitors of the anti-apoptotic protein A1, read as caspase activation; MEF A1-2A-BIM cells, Caspase-Glo 3/7 luminescence, 3 h; percent of clofoctol response, vehicle zero; caspase activation, % (no concentration beside the values); 0.066% of 330,000 active;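 active means over half of replicate activation scores above 10%, or exactly half above 10 with the replicate mean above 10; inconclusive means replicate mean below 10 yet half the replicates above 10; inactive means over half of replicates below 10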;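 further: wells of about 30 µL received 50 nL stock; many hits fall short of the cut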
Calb FLC = affects C. albicans growth with fluconazole; C. albicans CaCi-2 (fluconazole-resistant clinical isolate) + fluconazole, Alamar Blue growth, 48 h; growth inhibition, % (test concentration not listed); 0.57% of 300,000 active;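 active means most replicates above 75%; inconclusive means exactly half above 75%; inactive means most below 75%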;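 further: all wells also contain fluconazole at 8 µg/ml as a sub-toxic cotreatment; 0% = median of DMSO wells and 100% = median of geldanamycin control wells; wells of about 8 µL received 7.5 nL stock; the first replicate is given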
rRNA inh HTS OD600 = further read-out of rRNA inh HTS, marked with its call; OD600 change, %; measured here: OD600 growth;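 optical density of the mix in the first replicate; 0 = DMSO median and -100 = no signal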
rRNA inh HTS RFP = also measured in rRNA inh HTS; calls as there; RFP signal change, %; measured here: RFP humanized mutant strains;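 first replicate; 0 = DMSO median and -100 = no signal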
Numbers without * were called inactive; ? = inconclusive; / = not tested or not shown; & = joins results of further samples. This is a subset, so the mix of outcomes need not match the whole.

canonical_smiles	RanGTP-Imp inh	T cruzi inh	Vif A3G	AF4-AF9 inh	rRNA inh HTS	rRNA inh HTS OD600	rRNA inh HTS RFP	Beta apoptosis	Bfl-1 A1 inh	Calb FLC
CC(=O)c1ccc(OCCCC(=O)NC2CCC(C)CC2)cc1 (centres undefined)	-0.3	0	/	-14	-1	-2	3.8	-9	1.0	-6
COc1ccccc1C(=O)NNC(=S)NC(=O)c1cc(OC)c(OC)c(OC)c1	-0.3	60*	/	-2.3	-30	-38	-18	40	0.0	105*
O=C1C=C(c2ccc3[nH]ccc3c2)C[C@@H](c2ccc(Cl)cc2)C1	/	/	/	4.0	-6	-18	-10	1	-0.8	/
Cc1cccc(C)c1NCc1n[nH]c(=S)n1-c1ccccc1	2.4	2	2%	-7.8	-7	-1	1.2	-7	0.9	1
O=C(CSc1ncnc2c1oc1ccccc12)c1cccs1	1.3	7	0%	/	/	/	/	4	-2.7	-1
COc1ccc(NC(=O)c2cc(-c3ccc(C)o3)nc3ccccc23)c(OC)c1	1.4	21	/	1.8	0	-3	5.5	23	-3.4	3
Cc1ccc(Nc2ncnc3c2oc2ccccc23)cc1	-4.7	-5	-1%	/	/	/	/	-4	-2.1	11
COc1cc(OC)cc(C(=O)NCCSCc2ccco2)c1	-4.5	-8	-1%	/	/	/	/	/	/	-3
Cc1cc(C#N)c(C)c(SCc2[nH]nc3c2C(c2ccccc2)C(C#N)=C(N)O3)n1 (centres undefined)	2.1	13	7%	/	/	/	/	-4	-0.5	3
CC1CCN(C(=S)c2ccc3c(c2)OCO3)CC1	9.5	-2	-1%	/	/	/	/	-10	-0.4	-27
O=C(COC(=O)CSc1nnc(-c2ccc(Cl)cc2)o1)NCc1ccc2c(c1)OCO2	-1.9	-11	-18%&-23%	/	/	/	/	-1	-0.5	-10
Cc1ccc(-n2nnc3c(=O)n(CC(=O)NCC4CCCO4)cnc32)cc1 (centres undefined)	-3.8	-13	-1%	/	/	/	/	-17	0.8	-19
COc1ccc(-c2csc(NC(=O)C3CSC4(C)CCC(=O)N34)n2)cc1OC (centres undefined)	-2.4	-1	-1%	1.8	-1	13	13	5	0.0	0
O=C(OCC(=O)N1CCCCCC1)c1ccc(S(=O)(=O)N2CCOCC2)cc1	3.5	-7	5%	-0.7	8	6	1.1	-8	1.0	-17
CC12CCC(=O)N1C(C(=O)NNC(=O)COc1cccc(C(F)(F)F)c1)CS2 (centres undefined)	0.2	-5	-5%	2.7	3	11	-1.0	-3	1.3	0
O=C(c1ccc(S(=O)(=O)N2CCCC2)cc1)N1CCCc2ccccc21	5.2	12	9%	/	/	/	/	-5	-0.6	-3
CCO[C@H]1c2c(ccc3ccc(=O)oc23)OC(C)(C)[C@H]1O	/	/	/	-3.2	5	6	0.4	2	-0.8	/
CN(CC(=O)Nc1cccc(F)c1)C(=O)c1cn(-c2ccccc2)nc1-c1ccccc1	-0.8	31	-3%	2.1	-16	-48	37	-7	1.2	-23
Cc1c(C(=O)N2CCOCC2)c(S(=O)(=O)Nc2ccc(OC(F)(F)F)cc2)c(C)n1C	1.1	-12	/	0.7	5	6	1.1	-10	0.1	-8
C=CCSc1nnc(-c2ccccc2N=Cc2c(C)[nH]n(-c3ccccc3)c2=O)c(=O)[nH]1	3.3	-11	11%	/	/	/	/	0	-0.6	-10
CCc1ccccc1NC(=S)N(CCCN1CCOCC1)Cc1cccs1	-1.3	-17	1%	/	/	/	/	-1	-0.2	-9
CC(C)c1onc(C(=O)N(C)C2CCCCC2)c1[N+](=O)[O-]	-3.3	-1	-6%	/	/	/	/	8	0.1	-11
COc1ccccc1NC(=O)CCN1CCN(c2ccc(Cl)cc2)CC1	-1.5	9	/	3.7	-28	-31	-1.7	4	-0.3	-2
Fc1ccc(CSc2nsc(SCc3ccc(F)cc3)n2)cc1	0.5	-3	-4%	/	14	6	-3.5	-4	0.1	6
COC(=O)CN(C)C(=O)c1ccccc1OC1CCN(S(C)(=O)=O)CC1	4.7	-9	/	3.3	6	8	0.8	7	-0.4	9
COc1ccc(C(=O)N/C(=C/c2cccc3ccccc23)C(=O)NCCc2c[nH]c3ccccc23)cc1OC	2.1	30	9%	6.7	8	1	2.5	20	0.5	36
CCSc1nc2nc(C)cc(C)n2n1	-1.9	-24	-8%	/	/	/	/	0	1.0	-2
CNS(=O)(=O)c1cccc(C(=O)OCC(=O)Nc2cc(F)ccc2F)c1	1.2	-6	6%	-0.1	-3	-4	-1.6	-21	-0.1	-6
CCOC(=O)c1nnc2cc(C)nn2c1C	-3.8	/	1%	/	20	7	-0.3	1	1.0	30
Cc1cccc(NC(=O)CSCC(=O)NNC(=O)c2ccoc2C)c1	4.6	-4	4%	2.2	8	4	-0.4	/	-0.9	-1
CCn1nccc1C(=O)Nc1ccc(C)c(C)c1	-0.6	-3	-4%	/	/	/	/	5	-12	-3
COc1ccc(C2(CNC(=O)Cc3ccccc3)CCCC2)cc1OC	0.2	26	-3%	/	/	/	/	/	0.1	0
COc1ccccc1/C=N/NC(=O)c1ccc(Br)cc1	-4.1	-17	/	2.0	11	5	0.9	-2	0.2	-5
CN(C)C(=S)Nc1ccc2c(c1)OCO2	1.8	7	7%	-0.9	21	19	0.6	-2	1.1	-3
CS(=O)(=O)NCCSCc1c(F)cccc1Cl	-2.7	-4	-3%	/	/	/	/	-5	0.5	-14
Cc1nnc(N/N=C/c2ccco2)n1N	3.7	-3	17%	-5.9	11	12	-0.8	0	-0.1	47
O=C(CCC(=O)N(CC(=O)NC1CCCC1)c1ccccc1F)Nc1nccs1	-1.7	-2	-4%	0.8	3	11	-1.4	6	0.8	0
Cc1ccc2oc(=O)n(CC(=O)O)c2c1	4.3	1	?	-2.3	6	12	0.8	-3	-0.8	-7
O=C(CCCCCn1c(=O)[nH]c2ccsc2c1=O)N1CCN(C2CCCCC2)CC1	/	/	-1%	-1.1	0	4	0.2	1	?	/
CNC(=S)NNC(=O)c1cccn(Cc2cccc(C(F)(F)F)c2)c1=O	5.2	-1	0%	-1.8	9	9	0.1	-4	0.2	62
CCN1C(=O)C(=O)N(CC(=O)Nc2ccccc2Oc2ccccc2)C1=O	3.9	-6	-3%	0.4	6	2	4.0	-6	0.1	3
Cn1c(CN2CCCC2)nc2cc(NC(=O)COc3ccc(Cl)cc3)ccc21	-1.5	-1	4%	6.8	0	-5	0.5	4	1.1	-3
COC(=O)c1ccc(-n2nnnc2SC)cc1	-0.2	-4	7%	/	/	/	/	-1	-0.9	7
Cc1cc(OCC(=O)N(C)C2CCCCC2)cc(C)c1Cl	-3.0	32	-8%	-2.7	-56	-71	-20	-7	0.6	30
COc1ccc(NC(=O)C(C)SCc2ccccc2)cc1 (centres undefined)	?	3	/	-3.4	12	9	0.5	2	-0.8	-9
CCOC(=O)c1c(-c2ccsc2)csc1N	0.0	-8	6%	/	/	/	/	-11	-0.3	-12
CCOC(=O)C1=C(C)Nc2ccccc2N=C1NC(=O)c1oc2ccccc2c1COC	/	/	1%	-3.9	6	0	5.7	-17	-0.1	/
CC(C)OCCCN1C(=O)c2ccccc2C1C(=O)NC1CCCCC1 (centres undefined)	-4.1	-2	-4%	/	/	/	/	2	0.1	-6
O=C(O)c1cccc(N2C(=O)CSC2c2c(F)cccc2Cl)c1 (centres undefined)	?	-15	14%	/	/	/	/	-3	0.0	-4
COc1ccc(C(=O)Nc2cccc(NC(=O)c3cccs3)c2)cc1	-4.8	10	/	-2.2	-2	-10	-3.1	-1	-3.4	-14
O=C(Nc1ccc(Cl)cn1)C1COc2ccccc2O1 (centres undefined)	-0.8	-7	-9%	-1.3	5	1	-2.9	2	-2.7	10
O=C(Nc1nnc(SCCN2CCOCC2)s1)C1CC(=O)N(c2ccc(F)cc2)C1 (centres undefined)	-3.2	-3	8%	-0.6	3	8	-0.1	1	0.3	-7
COc1cc(O)c(C(CCN2CCN(c3ccccc3)CC2)c2ccc3c(c2)OCO3)c(OC)c1 (centres undefined)	-2.8	38	3%	8.7	-1	-26	-20	3	0.2	-13
Cc1cc(C)cc(OCC(=O)N2N=C(c3cccnc3)CC2(O)C(F)(F)F)c1 (centres undefined)	-1.7	-8	/	/	/	/	/	5	3.0	25
C=CCOc1ccccc1CNCCNC(=O)c1nonc1N	-6.8	-1	/	1.9	10	8	4.3	4	-0.6	2
CC1CC(C)CN(CCCNC(=O)c2cc3c(=O)[nH]c4ccccc4c3n2C)C1 (centres undefined)	4.7	17	?	-1.2	-5	-4	2.3	8	-0.1	15
Cc1cccc(Nc2nc(N3CCCCC3)nc(N3CCCCC3)n2)c1	-0.4	29	7%	/	/	/	/	16	0.2	-1
Cc1ccc(Nc2nc(C)nc3c2oc2ccccc23)cc1	0.3	10	-9%	-3.4	0	53	10	16	0.3	-1
O=C(O)c1cccc(Cn2c(Cl)c(/C=N/NC(=O)c3ccco3)sc2=O)c1	0.7	1	0%	0.1	10	-2	6.0	4	?	/
COc1ccc(/C=C/C(=O)c2ccc([N+](=O)[O-])o2)cc1	-0.7	-2	/	1.5	1	10	17	127*	0.7	-1

New compounds follow.
canonical_smiles	RanGTP-Imp inh	T cruzi inh	Vif A3G	AF4-AF9 inh	rRNA inh HTS	rRNA inh HTS OD600	rRNA inh HTS RFP	Beta apoptosis	Bfl-1 A1 inh	Calb FLC
CC(C)(C)NC(=O)NC(=O)COC(=O)c1cccc(NS(=O)(=O)c2ccc(F)c(F)c2)c1	4.5	-3	/	-0.7	-17	-12	26	-8	0.7	7
O=C(Nc1nccs1)C1CCN(S(=O)(=O)c2ccc(F)cc2)CC1	5.0	4	/	0.7	2	10	-0.9	/	-1.3	0
CS(=O)(=O)c1ccc(CNC(=O)C2(C(F)(F)F)C/C(=C/CCO)CCCO2)cc1 (centres undefined)	2.3	3	/	?	7	8	1.5	-2	-0.1	12
O=C(Cn1cccc1)N1CCN(C(c2ccccc2)c2ccccc2)CC1	0.4	-10	4%	/	/	/	/	-9	0.8	6
CCOc1ccc(S(=O)(=O)NC(C)C)cc1C(N)=O	-1.1	-15	-6%	-3.1	4	11	-2.3	-3	0.6	-11
CCCCC(=O)NC(=S)NNC(=O)c1ccc(Cl)cc1Cl	-2.4	-16	2%	-5.3	7	3	10	/	/	-2
COc1ccc(C(=O)N2CCC(C(=O)Nc3ccc4c(c3)OCCO4)CC2)cc1	2.6	-14	?	/	/	/	/	-10	-0.5	-2
CCOc1cccc2cc(-c3nnc(NCc4ccco4)s3)c(=O)oc12	1.2	13	10%	/	/	/	/	6	-0.2	5
Cc1cccc(NC(=S)N2CCCCC2)c1	0.6	-22	-4%	-1.0	16	11	-11	-5	0.4	-2
